Compound activity as filed in PubChem.
HIV Env fusion = HIV envelope-mediated fusion inhibition; inhibition, % at 12.3 µM; HeLa-JRFL Env/CEM21 cell fusion, luciferase; hit rate 1.1% among 360,000; AID 651610;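 active = mean replicate inhibition score of at least 50 and every replicate individually at or above 50; inconclusive = only one of the two criteria met; inactive = mean below 50 and not all replicates reaching 50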;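 also: 0% = plate neutral controls and 100% = maraviroc near 300 nM; one replicate is shown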
PABP FP inh = PABP-poly(A) binding inhibition | P11940 | PABP-poly(A) RNA binding, fluorescence polarization | inhibition, % at 35 µM | hit rate 1% among 290,000;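 active = 50% or more with normal probe brightness, or confirmed in later tests; inconclusive = above 50% with abnormal brightness, or retests that disagree; inactive = below 50% or failed in later tests; about a fifth of its hits are not listed in these tables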;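 also: calls also rest on retests at 20 µM and on dose response follow-up; controls were probe without protein and protein plus probe with vehicle; some compounds called inactive have numbers as strong as hits; many hits fall short of the cut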
Target sequence (P11940 whole entry, looked up): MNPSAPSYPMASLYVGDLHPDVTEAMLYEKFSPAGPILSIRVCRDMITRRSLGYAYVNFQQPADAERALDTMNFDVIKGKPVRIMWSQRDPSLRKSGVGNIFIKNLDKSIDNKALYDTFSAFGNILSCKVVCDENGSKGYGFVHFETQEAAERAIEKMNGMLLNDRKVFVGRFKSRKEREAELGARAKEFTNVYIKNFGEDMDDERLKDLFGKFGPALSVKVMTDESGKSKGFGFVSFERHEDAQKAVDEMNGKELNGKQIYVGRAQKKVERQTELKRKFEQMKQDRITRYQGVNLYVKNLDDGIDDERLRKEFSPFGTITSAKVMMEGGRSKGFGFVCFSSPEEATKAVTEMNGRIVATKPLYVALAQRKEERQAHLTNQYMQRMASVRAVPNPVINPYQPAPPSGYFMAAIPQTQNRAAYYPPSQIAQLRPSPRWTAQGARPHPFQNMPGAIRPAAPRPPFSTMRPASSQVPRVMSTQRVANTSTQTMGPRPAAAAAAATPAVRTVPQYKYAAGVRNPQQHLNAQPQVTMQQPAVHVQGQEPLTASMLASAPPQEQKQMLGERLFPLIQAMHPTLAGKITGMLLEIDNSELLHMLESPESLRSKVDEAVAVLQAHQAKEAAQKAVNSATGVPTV
Yeast UUG start = yeast start codon fidelity modulation | S. cerevisiae UUG-firefly luciferase reporter, luminescence/redox ratio | hit rate 0.13% among 350,000 | AID 602363 | activity score, % at 18.7 µM;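 active = replicate mean at a twofold rise or more, about +100% in these data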;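 also: firefly luciferase made from a UUG start codon reports start codon fidelity; reporter light over untreated wells divided by growth signal over untreated wells; some hits fall short of that in this replicate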
Rce1 inh = yeast Ras-converting enzyme inhibition | hit rate 0.27% among 290,000 | AID 2563 | calls only | yeast membranes, quenched prenylated peptide cleavage fluorescence;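 active = fall in fluorescence gain of 50% or more versus controls, with final raw signal at or below 3038400; inconclusive = same 50% fall but final raw signal above 3038400; inactive = fall in fluorescence gain under 50%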;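 also: plate controls were neutral control wells for no effect and wells lacking membranes for full effect; tested at 10 µM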
CSC inhib = blocks cancer stem cells; cancer stem cell-like cells viability, luminescence; inhibition, % at 7.5 µM; hit rate 1.1% among 300,000;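 active = mean at 75% or more and at least half the replicates too; inconclusive = mean and replicates disagree; tested in HMLE shEcad cells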;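 also: 0% = median of negative and 100% = median of positive control wells; the first replicate is given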
eIF4H inh = inhibitors of RNA binding by human eIF4H; inhibition, % at 35 µM; hit rate 0.94% among 290,000; Q15056; eIF4H fluorescence polarization binding assay;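 active = 50% or more with normal probe brightness, or confirmed in later tests; inconclusive = above 50% with abnormal brightness, or retests that disagree; inactive = below 50% or failed in later tests; about a fifth of its hits are not listed in these tables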;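 also: calls also rest on retests at 20 µM and on dose response follow-up; 0% = protein and probe with vehicle and 100% = probe without protein; strong numbers were not always called active; many hits fall short of the cut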
MT1-MMP act inh = MT1-MMP (human) activation inhibition | P50281 | HT1080 RFP-PRO-GFP cells, GFP/RFP ratio fluorescence, overnight; percent of plate control window, DMSO zero | GFP/RFP ratio change, % at 20 µM | hit rate 0.061% among 360,000;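 active = GFP/RFP ratio change of at least 30% with cell ATP level not reduced by more than half and red fluorescence within 50% of control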; also: strong numbers were not always called active
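Assay system – RFP-PRO-GFP reporter HT1080 cells · Compound dosing – single dose of 20 µM compound, 1% DMSO final · Incubation – overnight compound exposure at 37 °C · Measure – GFP/RFP fluorescence ratio · Benchmarks – DMSO wells and RFP-L50D-GFP cells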
MT1-MMP act inh RFP = second read-out of MT1-MMP act inh, no call of its own (marks repeat the call); RFP signal change, %; measured here: RFP expression control read;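 0 = vehicle wells; hits needed this value within 50% of zero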
An asterisk follows results filed as active; i = inactive; ? = inconclusive; . = no result given; & = joins results of further samples; [ ] = remark or other dose.

SMILES	HIV Env fusion	PABP FP inh	Yeast UUG start	Rce1 inh	CSC inhib	eIF4H inh	MT1-MMP act inh	MT1-MMP act inh RFP
COc1cccc(OC)c1NC(=O)C1CCCN1C(=O)NCc1ccccc1 (stereo not drawn)	-146	5	-19	i	-2	-2	-1	1
CCN1CCN(C(=O)CN(c2ccc(F)c(Cl)c2)S(C)(=O)=O)CC1	8	-12	.	i	-33	3	-6	-4
CCCCn1c(N)c(N(CC(C)C)C(=O)COC(=O)Cc2cccc(OC)c2)c(=O)[nH]c1=O	-10	.	18	i	0	.	1	0
Nn1c(SCC(=O)Nc2ccc3c(c2)OCO3)nncc1=O	4	11	-10	i	-11	-4	4	4
COc1ccccc1N1CCN(S(=O)(=O)CCNC(=O)c2cc(OC)c(OC)c(OC)c2)CC1	-45	0	-12	i	18	-4	1	-9
C[C@H]1NC(=O)[C@]2(C)[C@@H](c3ccccc3)[C@H]3COc4ccccc4[C@@H]3N2C1=O	11	.	-14	.	.	.	-1	2
O=C(C[C@H]1C(=O)N(c2ccc(F)c(F)c2)C[C@@H]1Cc1ccccc1)Nc1ccccc1	-62	-3	-17	i	31	5	3	-4
CC(=O)Nc1ccc2nc(NC(=O)c3ccc([N+](=O)[O-])o3)sc2c1	-24	19	-14	i	38	26	6	-11
CCN(c1ccccc1)S(=O)(=O)c1ccc(C(=O)NCC(c2cccs2)N(C)C)cc1 (stereo not drawn)	2	-21	.	i	16	2	4	2
O=C(Nc1ccc(F)cc1)C1=CC(=O)N2CCN=C2S1	.	-3	.	i	-3	0	.	.
CN1CCN(c2ccc(S(=O)(=O)N3CCCCC3)cc2NC(=O)c2cccc([N+](=O)[O-])c2)CC1	6	?	.	i	4	4	1	-2
COc1ccc(-c2oc3ncnc(NCCN4CCOCC4)c3c2-c2ccc(OC)cc2)cc1	.	22	-6	i	34	35	-15	-22
CC(=O)c1cccc(OCc2cc(C(=O)N3C[C@@H](C)O[C@@H](C)C3)no2)c1	-34	-8	10	i	-10	-14	5	5
COC(=O)[C@]1(C)N[C@H](CN(C)C(=O)c2ccc(C)cc2)[C@@H]2C(=O)N(C)C(=O)[C@@H]21	4	.	-14	.	.	.	1	4
CCCCCC(=O)N1CCCC1	9	10	-15	i	-8	-9	2	1
COc1cccc(CC(NC(C)=O)C(=O)NC2CCN(C(=O)Nc3ccc(C)cc3)CC2)c1 (stereo not drawn)	-4	5	-11	i	.	13	0	2
Cc1ccc(C)c(C(O)c2ncc(-c3ccc4ccccc4c3)[nH]2)c1 (stereo not drawn)	-15	.	-20	.	.	.	4	1
O=C(CCc1ccccc1)Nc1nnc(-c2ccc3c(c2)OCCO3)o1	23	-2	.	i	5	-1	-1	3
Cc1noc(C)c1C(=O)NCCc1ccccc1	-24	3	-7	i	12	-10	-4	-1
Cc1ccc(S(=O)(=O)CC2CSc3nc(N)cc(=O)n32)cc1 (stereo not drawn)	17	0	-8	.	-6	-10	-7	-1
Clc1cccc(/C=N/N2CCN(Cc3ccccc3)CC2)c1	-33	10	-3	i	6	-2	10	-2
O=C(OCC(=O)N1CCC(Cc2ccccc2)CC1)c1ccccc1	8	-1	.	i	5	3	4	4
O=C(NC(=S)Nc1ccc(Br)cn1)c1cccs1	-28	-29	-8	i	-4	12	3	5
CCc1ccc2c(c1)cc(CN(C(=S)Nc1ccccc1)C1CC1)c1nnnn12	.	10	-16	i	2	-4	0	-1
Cc1cc(NC(=O)CSc2nc3c(cnn3-c3cccc(Cl)c3)c(=O)[nH]2)no1	.	.	-9	.	-11	.	-1	0
COC(=O)Cc1ccc(NC(=S)NNC(=O)c2ccccc2Br)cc1	-14	2	-47	i	5	-4	4	6
COc1ccc(-n2ncc3c(SCC(=O)OC(C)C)ncnc32)cc1	11	.	-1	.	.	.	2	2
Cc1ccc(S(=O)(=O)N2CC(C)N(C(=O)N3CCOCC3)C2)cc1 (stereo not drawn)	-2	3	-17	i	2	-3	-1	1
Cc1cccc(C)c1OCC(=O)Nn1c(=O)[nH]c2ccccc2c1=O	-28	-6	.	i	19	-12	3	5
O=C(COc1coc(CN2CCc3ccccc32)cc1=O)NCCc1ccccc1	.	.	-13	i	-11	.	3	-1
O=C(NC1CCCCC1)C12CC3CC(CC(Cl)(C3)C1)C2	15	11	-18	i	-8	-4	-1	-4
NC(=O)c1nc[nH]c1C(=O)Nc1cccc(NC(=O)c2cccc(C(F)(F)F)c2)c1	-42	.	-18	.	-11	.	8	2
COc1ccccc1N1CCN(C(=O)C(Sc2ccccc2)c2ccccc2)CC1 (stereo not drawn)	.	3	-13	i	-16	-6	-15	-16
O=C(COc1ccccc1-c1ccccc1)NNC(=O)NC1CCCCC1	3	13	.	i	-5	-13	3	1
O=[N+]([O-])c1cc2c(cc1CN1CCN(c3ccc(F)cc3)CC1)OCO2	18	12	-10	i	4	5	0	-2
CC1CCCN(C(C(=O)Nc2ccc3c(c2)OCCO3)c2ccccc2)C1 (stereo not drawn)	-74	19	-16	i	.	2	-8	0
COc1ccc(-c2ccc(-c3nnn(CC(=O)N4CCOCC4)n3)cc2)cc1	-178	14	-1	i	-9	0	4	2
CNc1nc(N)c([N+](=O)[O-])c(NCCO)n1	.	8	-15	i	1	16	1	1
CCOC(=O)c1ccc(NC(=O)COc2ccccc2CNCCc2ccccc2)cc1	-37	6	.	i	-6	-12	-6	-8
CCOC(=O)N1CCN(C(=O)CSCc2nc(-c3ccccc3C)oc2C)CC1	-53	2	0	i	-14	-6	2	0
COc1ccc(/C(C)=N/NC(=O)c2sccc2-n2cccc2)cc1	-13	-5	.	i	-16	0	4	4
COc1ccc(C(C)(C)C)cc1NC(=O)c1ccc2c(c1)SC1=NS(=O)(=O)CCN12	-6	1	1	i	9	-4	-5	2
COc1ccc(Cl)c(NC(=O)NCCN2CCN(c3ccccc3)CC2)c1	.	-13	-12	i	0	-6	-1	-1
O=C(Nc1cccnc1)c1ccc(Cl)c([N+](=O)[O-])c1	-5	2	-5	i	-13	6	-5	-4
C=C(C)Cn1c(-c2cccc([N+](=O)[O-])c2)n[nH]c1=S	-10	-2	.	i	-6	12	3	4
COc1ccc(C(=O)CN2C(=O)c3ccccc3C2=O)c(OC)c1C	.	2	-14	i	-17	6	4	-1
Cc1ccc(Cl)cc1NC(=O)CN1CCOCC1	5	.	.	i	4	.	0	2
CCSC(=Nc1ccccc1)C1=C(O)COC1=O	-37	13	-13	i	5	-10	6	2
Cn1cnc(S(=O)(=O)N2CCN(c3cccc(C(F)(F)F)c3)CC2)c1	4	7	-4	i	.	-6	3	8
O=C(CN1C(=O)CSC1=O)Nc1ccccc1F	-82	-5	2	i	-2	-2	-1	-2

(listing goes on)
SMILES	HIV Env fusion	PABP FP inh	Yeast UUG start	Rce1 inh	CSC inhib	eIF4H inh	MT1-MMP act inh	MT1-MMP act inh RFP
O=C(C1CC(=O)N(c2ccc3c(c2)OCCO3)C1)N1CCN(Cc2ccccc2F)CC1 (stereo not drawn)	-9	.	-9	.	-5	.	-2	-1
COc1ccccc1/C=C1\SC(=S)N(CCC(=O)NCCc2ccc(O)cc2)C1=O	-3	.	-1	i	-17	.	2	2
CCN(CC)c1ncnc2ccc(Br)cc12	87*	-1	-8	i	-12	-4	-17	-9
CC(C)(C)c1cc(CN2CCN(CCC#N)CC2)cc(C(C)(C)C)c1O	.	25	-16	i	-10	8	0	3
Cc1ccccc1C(=O)Nc1ccc(C(=O)N/N=C/c2ccc(O)c(Br)c2)cc1	22	3	.	i	22	-12	-2	-1
COc1ccc(NS(=O)(=O)c2cc(NC(=O)c3cnccn3)ccc2N2CCCC2)cc1	9	-7	-5	i	15	6	-1	2
CCOC(=O)N1CCN(S(=O)(=O)c2ccc(C(=O)NNc3nc4c(C)cc(C)cc4s3)cc2)CC1	-86	14	-30	i	126*	14	5	4
CCn1cnc2cc(NCc3cccs3)ccc21	1	-7	-25	i	-15	3	4	3
COc1cccc(OC)c1C(=O)Nc1cccc(-c2ccc(N3CCOCC3)nn2)c1	-6	.	0	i	-10	.	4	1
CCOC(=O)N1CCN(C(=O)CSCc2ccccc2Cl)CC1	-4	5	-26	i	-3	0	2	3
C[C@@H]1CN([C@@H](C)CO)C(=O)c2cc(C#Cc3ccccc3)cnc2O[C@H]1CN(C)C(=O)c1ccccc1F	11	.	12&7&22	.	.	.	2	-2
c1ccc(CCSc2nccn2-c2ccccc2)cc1	.	-6	-59	i	-1	-3	-2	-4
Cc1nc(-c2cc(C#N)c(=O)[nH]c2C)cs1	46	-12	-6	i	14	0	0	1
CC1Sc2ccc(C(=O)NCc3ccccc3Cl)cc2NC1=O (stereo not drawn)	.	.	-9	.	-23	.	-5	-6
S=C(Nc1ccccc1)Nc1nc2ccccc2n1CCOc1ccccc1	-4	-6	-31	i	98*	0	9	-6
COc1ccc(NC(=O)c2ccco2)cn1	-10	?	-14	i	.	?	-12	0
O=C(CCCN1C(=O)c2ccccc2C1=O)Nc1ccc(S(=O)(=O)N2CCCCC2)cc1	-40	2	12	i	-9	-1	3	0
CCn1c(SCC(=O)N2CCOCC2)nc2sc3c(c2c1=O)CCCC3	.	5	2	i	-20	10	1	0
CN(C)CCN(C(=O)c1ccc2c(c1)OCCO2)c1nc2cc3c(cc2s1)OCO3	21	-2	0	i	-5	2	-3	5
COc1ccc(OCCC(=O)c2ccc(OC)cc2)cc1	3	-4	-7	i	1	-13	-1	1
CC(C)CC#Cc1ccc2c(c1)O[C@H](CN(C)C(=O)Nc1ccccc1)[C@@H](C)CN([C@H](C)CO)S2(=O)=O	-10&-30[16.7 µM]	.	6&-2&-9	.	.	.	3	5
COc1cc(/C=C2/C(=O)NN(c3ccc(Cl)cc3)C2=O)cc(Br)c1O	19	-3	-20	i	-1	26	-6	-1
COc1ccc(CNc2cc(NCCCO)c([N+](=O)[O-])c3nonc23)cc1	9	-4	.	i	16	0	-2	-13
COc1ccc(C(NC(=O)c2cc(OC)ccc2OC)c2ccccc2)cc1 (stereo not drawn)	16	2	5	i	57	5	-1	1
O=C(NCCc1ccccn1)c1c(-c2ccccc2)sc2ccccc12	?	.	6	.	31	.	4	-4
COc1ccc(NC(=O)c2cc(-c3ccco3)nc3ccccc23)cc1	42	.	.	i	14	.	-6	-2
Cc1ccc(N2CCN(CC3CC=CCC3)CC2)cc1 (stereo not drawn)	?	3	-20	i	.	4	-1	2
CSc1cccc(NC(=O)Nc2nc3c(C)cccc3s2)c1	-9	19	2	i	28	6	-1	-8
CNC(=O)c1ccc(Nc2nnc(C)c3ccccc23)cc1	.	-4	-5	i	-8	4	0	-4
Cc1ccccc1C(=O)Nc1ccccn1	-21	12	-17	i	-6	-11	3	7
Cc1nn(-c2ccccn2)c2nc(-c3cccs3)cc(C(=O)N3CCOCC3)c12	-33	-5	.	i	-7	-11	-3	-8
Cc1c(C)n2c(SCC(=O)Nc3cccc4ccccc34)nnc2[nH]c1=O	7	.	-16	i	6	.	1	1
Cc1cc2[nH]c(=O)c(=O)[nH]c2cc1S(=O)(=O)NCc1ccccc1	-5	-17	5	i	-8	-8	1	1
O=C(Nc1ccccc1-c1ccccc1)c1cc(C(F)(F)F)cc(C(F)(F)F)c1	-57	-3	-6	i	-10	8	0	3

Entries above shown as hits in HIV Env fusion.
SMILES,HIV Env fusion,Yeast UUG start,Rce1 inh,MT1-MMP act inh,MT1-MMP act inh RFP
CCN(CC)c1ncnc2ccc(Br)cc12,87*,-8,i,-17,-9
